Source: PubChem BioAssay (several laboratories)
GALR2 agonist: activates the human galanin receptor 2. O43603. activation, %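 (tested at 5 µM)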. AID 803. GALR2-expressing cells, agonist activation read-out. 0.48% of 140,000 active;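 active = above mean plus 3 SD of all compounds, about 5% in these data, not always enough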;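 note: 0% = vehicle buffer wells and 100% = reference agonist at full effect; tested in CHO reporter cells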
Target sequence (O43603 whole entry, looked up): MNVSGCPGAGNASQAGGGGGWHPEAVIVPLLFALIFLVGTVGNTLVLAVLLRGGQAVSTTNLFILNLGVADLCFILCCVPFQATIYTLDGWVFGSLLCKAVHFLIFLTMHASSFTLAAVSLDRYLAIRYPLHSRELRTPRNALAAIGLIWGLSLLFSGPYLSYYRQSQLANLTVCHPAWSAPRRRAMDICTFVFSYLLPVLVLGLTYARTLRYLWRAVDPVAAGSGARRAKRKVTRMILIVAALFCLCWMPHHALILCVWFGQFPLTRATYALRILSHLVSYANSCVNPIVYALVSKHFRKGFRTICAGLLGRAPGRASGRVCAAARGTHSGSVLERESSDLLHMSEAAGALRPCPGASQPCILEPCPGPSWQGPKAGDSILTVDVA
INS promoter inh: TRM-6 insulin promoter activity inhibition | TRM-6 cells (human fetal islet line), insulin promoter-eGFP reporter, imaging; reporter expression induced with tamoxifen | inhibition, % at 2 µM | 0.9% of 130,000 active | AID 1273;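 active = inhibition above the mean plus 3 SD, with well images judged a real hit on visual review, cut at about 60% in these data, passing the limit was not always enough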
HSV augment: HSV replication enhancement; HSV replication augmentation in cells, fold increase; maximum fold increase; 0.005% of 220,000 active;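 active = peak rise of 1.5-fold or more in the series; tested in PC3 cells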;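 note: first round at 10 µM; read as green reporter fluorescence; hits show the peak of a series up to 25 µM; 1 = signal of infected wells without compound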
PKD1 inh: inhibitors of human PKD1 kinase | 0.056% of 200,000 active | Q15139 | AID 797 | PKD1 kinase fluorescence polarization assay | inhibition, %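 (about 10 µM by stock and volumes)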;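 active = inhibition of 50% or more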;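 note: controls were vehicle for no effect and a reference inhibitor for full effect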
RGS16-Gao: modulates binding between human RGS16 and Galphao; binding response (% of control), % at 10 µM; 0.38% of 220,000 active; O15492+P09471; bead-based flow cytometry RGS16-Galphao binding, fluorescence; actives lie on both sides; AID 1441;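 active = below 25% or above 175%, edge rows of some plates excepted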;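 note: Galphao activated by GDP with aluminum fluoride before binding; 100% = wells without compound and 0% = beads without RGS; some results beyond the cut were filed as inactive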
Target sequence (O15492 whole entry, looked up): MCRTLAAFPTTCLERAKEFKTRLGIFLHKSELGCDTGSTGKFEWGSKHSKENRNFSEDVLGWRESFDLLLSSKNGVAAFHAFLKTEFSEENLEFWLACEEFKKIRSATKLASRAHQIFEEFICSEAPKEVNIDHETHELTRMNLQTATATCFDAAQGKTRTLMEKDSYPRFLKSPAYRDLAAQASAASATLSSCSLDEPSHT
Target sequence (P09471 whole entry, looked up): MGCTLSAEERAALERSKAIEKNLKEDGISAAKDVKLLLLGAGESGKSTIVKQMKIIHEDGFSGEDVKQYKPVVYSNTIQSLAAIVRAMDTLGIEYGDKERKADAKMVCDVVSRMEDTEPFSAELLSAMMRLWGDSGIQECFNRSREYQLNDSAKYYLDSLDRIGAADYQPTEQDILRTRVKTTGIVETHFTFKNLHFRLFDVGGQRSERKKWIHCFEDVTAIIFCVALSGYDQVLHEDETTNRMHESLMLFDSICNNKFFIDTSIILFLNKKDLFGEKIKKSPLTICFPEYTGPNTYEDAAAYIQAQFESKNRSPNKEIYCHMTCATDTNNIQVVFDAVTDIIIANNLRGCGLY
INS promoter inh cell count: further read-out of INS promoter inh, marked with its call; normalized cell count, %; measured here: cell count, toxicity; reference of the scale not given here;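 cells exposed to compound for 48 h; stained nuclei by imaging scaled within each plate; lower means fewer cells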
HSV augment primary fold: also measured in HSV augment; calls as there; fold increase; compound at 10 µM; measured here: primary screen fold increase 10 uM; tested in PC3 cells;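 GFP signal in the first replicate; 1 = infected wells without compound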
An asterisk follows results filed as active; i = inactive; . = no result given; & = joins results of further samples.

SMILES	GALR2 agonist	INS promoter inh	INS promoter inh cell count	HSV augment	HSV augment primary fold	PKD1 inh	RGS16-Gao
COc1ccc(CC(=O)NCc2nnc(SCC(=O)Nc3ccc(OC)cc3)n2C)cc1	.	.	.	i	0.93	-5	100
O=C(O)CC1CCCC(c2ccccc2)C1=O (stereo unspecified)	0.4	36	111	i	0.94	-11	100
CCCOc1cccc(C(=O)NC(=S)Nc2cccc(C(F)(F)F)c2)c1	0.1	11	120	.	.	-8	-171
CCS(=O)(=O)n1nc(-c2ccc(OC)cc2)nc1SC	-3.5	68	158	i	0.93	-3	101
CCCCN(CC(=O)NCc1ccc(F)cc1)C(=O)c1ccco1	.	.	.	i	1.1	-2	114
CCn1c(SCC(=O)N2CCCc3ccccc32)nnc1-c1c[nH]c2ccccc12	-1.1	24	119	i	0.96	9	87
C=C(Cl)COc1ccc2c(CCCC)cc(=O)oc2c1	-0.1	71	127	i	0.76	-5	106
COc1cc(OC)cc(C(=O)OCC(=O)Nc2ccc(F)cc2F)c1	.	-82	70	i	0.98	0	114
Cc1cc(C)c(C#N)c(SCc2nc3ccccc3[nH]2)n1	0.9	10	88	i	1	-2	96
O=C(Cn1c(N2CCN(c3ccccc3)CC2)nc2ccccc21)c1ccccc1	-1.4	.	.	.	.	7	100
CCOC(=O)Cn1c(-c2nonc2NC(=O)c2ccccc2F)nc2ccccc21	-1.6	0	115	i	0.64	9	87
CCOP(=O)(OCC)c1nc(Cc2ccccc2)oc1NCc1ccccc1	.	.	.	i	0.92	.	103
COc1ccc(CCNC(=O)c2ccc(N(C)S(=O)(=O)c3ccccc3)cc2)cc1	.	.	.	i	0.97	.	99
CCOC(=O)C(NC(=O)c1ccccc1OCC)(Nc1ncccn1)C(F)(F)F (stereo unspecified)	-0.6	.	.	i	0.99	-6	101
O=C(C1COc2ccccc2O1)N1CCCC1 (stereo unspecified)	-0.6	18	94	i	0.78	-2	101
Cc1ccc(-c2csc(NC(=O)/C=C/c3cccs3)n2)cc1C	-0.4	.	.	i	1.1	-5	102
COc1ccccc1NC(=O)CSc1nnc(CC(=O)Nc2ccccc2)n1C	-2.7	31	120	i	0.93	-2	102
Cc1cccc2cc3c(NC(=O)CC(C)C)nn(C)c3nc12	-0.9	64	93	i	0.93	4	102
O=C(CN(C(=O)c1csnn1)c1cccc2ccccc12)NC1CCCC1	.	-14	93	i	1	3	105
O/C(=C\Sc1nnc(Cc2ccccc2)o1)c1ccc(F)cc1	-1.8	-41	147	i	0.97	3	96
CCOc1cc(C)c(-c2onc(C(F)(F)F)c2-c2csc(C)n2)c(O)c1	-0.8	9	99	i	0.93	-2	95
O=C1c2nc3cc(-c4ccccc4)[nH]n3c(=O)c2CN1Cc1ccccc1	.	.	.	i	0.81	.	76
CC(C)NC(=O)C1CCN(C(=O)N(C)C)CC1	-1.8	-12	109	i	0.98	6	101
NCCCC[C@@H]1NC(=O)c2cc([N+](=O)[O-])cc(I)c2SC[C@@H](C(N)=O)NC(=O)[C@H](Cc2ccc(O)cc2)NC1=O	-2.5	23	120	i	0.72	-1	95

Reprinted at random: 2 compounds from above, in no set order.
SMILES	GALR2 agonist	INS promoter inh	INS promoter inh cell count	HSV augment	HSV augment primary fold	PKD1 inh	RGS16-Gao
CCCOc1cccc(C(=O)NC(=S)Nc2cccc(C(F)(F)F)c2)c1	0.1	11	120	.	.	-8	-171
NCCCC[C@@H]1NC(=O)c2cc([N+](=O)[O-])cc(I)c2SC[C@@H](C(N)=O)NC(=O)[C@H](Cc2ccc(O)cc2)NC1=O	-2.5	23	120	i	0.72	-1	95

Carrying on.
SMILES	GALR2 agonist	INS promoter inh	INS promoter inh cell count	HSV augment	HSV augment primary fold	PKD1 inh	RGS16-Gao
CCOc1c(C#N)c(C#N)c2nc(C)cc(C)n12	0.0	.	.	i	0.95	0	111
CC(C)CC(=O)NC(=S)N1CCN(c2ccc([N+](=O)[O-])cc2Cl)CC1	0.1	.	.	i	0.98	8	88
CCCc1nc2c(o1)CC(CC(C)SCC)CC2=O (stereo unspecified)	-1.5	-274	23	i	1.1	-12	-7.1*
CCC(C)/C(C)=N/NC(=O)c1cn(-c2ccccc2)nc1-c1ccccc1 (stereo unspecified)	-1.1	.	.	i	0.78	-4	109
COc1ccc(/C=N/n2c(-c3ccco3)nc3ccccc3c2=O)cc1	-1.5	71	106	i	1	-4	36
Cc1ccc(NC(=O)CN(C)C(=O)CSc2nnc(C(F)(F)F)n2C)cc1	.	.	.	i	1	0	96
COc1ccc(CC(=O)O)cc1O	.	.	.	i	1.2	6	101
O=C(Nc1ccc(N2CCN(C(=O)c3ccccc3)CC2)cc1)c1ccc([N+](=O)[O-])o1	.	.	.	i	0.54	-5	114
COc1ccc(CCNC(=O)CSCc2ccc(F)cc2)cc1OC	-0.2	3	122	i	0.88	-3	105
COc1ccc(OC)c(C(=O)c2ccc(C(=O)N3CCN(Cc4csc(C)n4)CC3)cc2)c1	.	.	.	i	1	10	96
CC(C)CN1CCN(Cc2nc(C(C)C)cs2)CC1CCO (stereo unspecified)	.	.	.	i	1.1	-9	80
CCc1nnc(N2C(=O)c3ccccc3C2(O)c2ccccc2)s1 (stereo unspecified)	.	.	.	i	0.97	.	91
COc1ccc(Cl)cc1C(=O)CSc1nnnn1C	.	.	.	i	1.1	-2	94
O=C(c1cccs1)N(c1cccc(Cl)c1)C1C=CS(=O)(=O)C1 (stereo unspecified)	.	11	93	i	1.1	-8	93
C=CCN(c1ccc(C(=O)Nc2ccc(NC(C)=O)cc2)cc1)S(C)(=O)=O	.	27	116	i	0.83	-2	105
CCc1ccc(-n2c(=O)c3ccccc3n(CC(=O)NCc3ccco3)c2=O)cc1	.	-78	81	i	0.97	0	102
COc1ccc2nc(C)cc(SCC(=O)O)c2c1	-0.5&-1.7	-7&9	78&148	i	1.1&1	-8&-1	98&136
Cc1ccccc1N1C(=S)NC2c3ccccc3OC1(C)C2C(=O)N(C)C (stereo unspecified)	.	.	.	i	1	0	100
COC(=O)Cc1c(C)nc2nc(NCc3ccccc3OC)[nH]n2c1=O	-1.7	37	157	i	0.92	2	110
COc1ccc(Nc2ccc(N3C(=O)CC(C)C3=O)cc2[N+](=O)[O-])cn1 (stereo unspecified)	.	-50	139	i	0.98	0	98
Cc1ccc(/C=N/n2c(-c3ccncc3)n[nH]c2=S)cc1	-0.9	-11	66	i	0.97	-2	-29
COc1ccc(N2C(=O)CC(N3CCC(O)(c4ccc(Cl)cc4)CC3)C2=O)cc1 (stereo unspecified)	-1.9	27	115	i	0.91	-2	94
CCOC(=O)c1[nH]c(C)c(C(=O)OCC(=O)N2c3ccccc3CC2C)c1C (stereo unspecified)	-2.9	7	81	i	0.91	-4	107
COC(=O)CCCCC1SCC2NC(=O)NC21 (stereo unspecified)	.	29	108	i	0.95	0	116
c1ccc(-c2noc(-c3cccc4ccccc34)n2)cc1	-0.3	.	.	i	1	-2	107
O=C(CSc1nc2ccccc2[nH]1)Nc1nc(-c2ccccc2)c(-c2ccccc2)o1	-0.3	.	.	i	1	1	106
O=S(=O)(c1cccc(C(F)(F)F)c1)N1CCCC1c1cccnc1 (stereo unspecified)	.	.	.	i	1.2	.	94
Cc1cnn(C(=S)NCCc2ccccc2)c1	-1.2	-12	80	i	0.97	-2	102
CC1(C)CC(=O)C2=C(C1)N(c1ccccc1)C(=O)CC2c1ccc(O)cc1 (stereo unspecified)	.	-7	112	i	0.98	-1	96
O=C(CCSc1ccccc1)N1CCN(C(=O)c2ccco2)CC1	-0.9	-156	135	i	1	-2	91
COc1ccc(-c2[nH]ncc2C=O)cc1OC	.	.	.	i	0.92	-5	100
CSc1nc(C)cc(C)c1C(N)=O	-1.7	-300	57	i	0.92	-1	106
CC(C)(C)c1cnnn1-c1ccc(NC(=O)c2ccc3c(c2)OCO3)cc1	0.1	-36	137	i	1.2	-11	101
Cc1c(C(=O)O)sc(=S)n1-c1ccccc1	-3.7	9	90	i	0.98	-9	92
CCc1ccc2c(CN3CCc4cc(OC)c(OC)cc4C3)cc(=O)oc2c1	-0.3	53	47	i	0.85	-5	104
O=C(O)/C=C/C(=O)NCCCc1ccccc1	.	.	.	i	1	-6	102

Structural class: the compounds so far containing a furan ring, fused or not.
SMILES	GALR2 agonist	INS promoter inh	INS promoter inh cell count	HSV augment	HSV augment primary fold	PKD1 inh	RGS16-Gao
CCCCN(CC(=O)NCc1ccc(F)cc1)C(=O)c1ccco1	.	.	.	i	1.1	-2	114
COc1ccc(/C=N/n2c(-c3ccco3)nc3ccccc3c2=O)cc1	-1.5	71	106	i	1	-4	36
O=C(Nc1ccc(N2CCN(C(=O)c3ccccc3)CC2)cc1)c1ccc([N+](=O)[O-])o1	.	.	.	i	0.54	-5	114
CCc1ccc(-n2c(=O)c3ccccc3n(CC(=O)NCc3ccco3)c2=O)cc1	.	-78	81	i	0.97	0	102
O=C(CCSc1ccccc1)N1CCN(C(=O)c2ccco2)CC1	-0.9	-156	135	i	1	-2	91

New compounds follow
SMILES	GALR2 agonist	INS promoter inh	INS promoter inh cell count	HSV augment	HSV augment primary fold	PKD1 inh	RGS16-Gao
Cc1cc(OCC(=O)Nc2ccc(F)c(F)c2)nc(C(C)C)n1	-2.2	51	100	i	1.1	5	-13*
COC(=O)CCS(=O)(=O)c1ccc(Cl)cc1	-3.4	-19	65	i	0.9	-3	97
COc1ccc2cc3c(N)nn(C(=O)Cc4c[nH]c5ccccc45)c3nc2c1	.	.	.	i	0.4	.	101
Cc1cc(C)c(-n2nnnc2SCC(=O)c2cccs2)c(C)c1	.	.	.	i	0.97	.	102
CCNC(=S)Nc1ccc(S(=O)(=O)Nc2cc(C)nc(C)n2)cc1	.	.	.	i	1	-7	107
COc1ccc(CC/C(=N\O)C2(O)CCCCC2)cc1	-0.8	50	99	i	0.96	-1	97
O=C(Cn1[nH]c(=O)c2ccccc2c1=O)OCC(=O)N1CCc2ccccc2C1	-2.1	.	.	i	0.92	-9	116
COc1cc(SC)ccc1C(=O)Nc1ccccc1	-2.3	47	53	i	0.9	-8	95
COc1cccc(CNC(=O)CN2CCC(c3nc4ccc(C)cc4[nH]3)CC2)c1	.	.	.	i	0.7	-3	107
Cc1onc(-c2ccccc2)c1C(=O)N1CCN(C)CC1	-2.3	-100	54	i	0.67	-7	133
CN(C)/C=N/c1nc2nccc(-c3ccc(Cl)cc3)n2n1	.	0	90	i	0.8	-2	106
Cc1cc(C)cc(C(=O)NC(=S)Nc2ccc(-c3cc4ccccc4oc3=O)cc2)c1	0.3	.	.	i	1.2	-5	78
COCCNC(=O)c1ccccc1NC(=O)CN(c1ccc2c(c1)OCO2)S(C)(=O)=O	-1.7	.	.	i	0.76	-12	96
O=C(NCCN1CCOCC1)c1ccccc1-c1ccccc1	1.0	-40	94	i	1.1	1	103
NS(=O)(=O)c1ccc(NC(=O)COC(=O)c2cn(-c3ccccc3)nc2-c2ccc(F)cc2)cc1	1.2	14	95	i	0.74	-1	95
N#Cc1ccccc1NC(=S)Nc1ccc(F)cc1	.	.	.	i	0.97	-4	113
C=CCN1C(=O)C(CC(=O)O)SC1=Nc1ccc(N=Nc2ccccc2)cc1 (stereo unspecified)	.	.	.	i	0.92	9	100
COC(=O)/C(N=Nc1c(C)n(C)n(-c2ccccc2)c1=O)=C(\C)O	-1.0	.	.	i	1.2	-7	95
COc1ccccc1C(=O)NC(=S)Nc1ccc(NC(=O)c2ccco2)cc1	.	24	80	i	0.86	1	102
COc1cc(Br)c(Br)c(Br)c1N	.	.	.	i	1.1	.	103
Cc1ccccc1C(=O)NC(=S)Nc1ccc(N2CCOCC2)cc1	.	-27	67	i	0.91	-4	89
Cc1nc2ccccn2c1-c1ccnc(=S)[nH]1	.	.	.	i	0.91	.	96
CCN(CC)C(=O)CC(c1cc(OC)c(OC)c(OC)c1)c1c(OC)cc(OC)c2c(-c3ccccc3)cc(=O)oc12 (stereo unspecified)	.	.	.	i	0.96	.	107
COC(=O)c1c[nH]n2c(=O)cc(C)nc12	-2.0	.	.	i	1.1	1	100
CCc1sc(NS(C)(=O)=O)nc1-c1ccccc1	-0.6	8	109	i	0.84	-2	97
Cc1ccc(CN2C(=O)CCC2C(=O)NCCN2CCOCC2)cc1 (stereo unspecified)	-1.4	29	107	i	0.96	-7	97
COc1cccc(C(=O)NC(=S)Nc2ccc3c4c(cccc24)CC3)c1	-0.6	19	91	i	0.96	-3	212
CCOc1ccc2nc(-c3ccccc3)[nH]c2c1	-1.0	86*	118*	i	0.9	-6	102
CC(C)c1ccc(OCC(=O)N2CCCCCC2)c(Br)c1	.	-58	137	i	1.1	-6	98
Cc1cc(NC(=O)c2cnn3c(C(F)F)cc(C4CC4)nc23)no1	-0.2	-107	71	i	0.91	-10	105
CCCCNC(=O)CCn1c(=O)c2ccccc2n(CC(=O)NCCc2ccc(OC)c(OC)c2)c1=O	.	-83	110	i	0.92	-5	101

This is a random part of the collection; overall some 1.1% were active at least once.
